High-throughput results from PubChem.
miR-21 reporter: qHTS Assay for Modulators of miRNAs and/orActivators of miR-21 | Potency, µM (titrated, usually from 38.3 µM), for inactives: at the highest dose reporter change, positive = more light | 340,000 tested, under 10 active | HeLa miR-21 FLuc reporter, luciferase, 48 h; active = well fitted rising curve with a large enough effect; inconclusive = small, poorly fitted or top-dose-only effect; inactive = no such curve, though single readings can be large or run the other way;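 also: % of control where 0% means no effect; miR-21 action dims this reporter so a rising signal means less miR-21 action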
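HeLa miR-21-FLuc reporter line, endogenous miR-21; 2000 cells/well in DMEM/10% FBS; compound titration up to ~40uM final, 48 h, 37 degree Celsius; luciferase detection reagent, 15 min lysis, CCD luminescence.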
Active calls of the source: *; ? = inconclusive. Only part of the results is shown; rates above refer to the full screens.

miR-21 reporter	canonical_smiles
-11.6%	Cn1nnnc1SCCCNCc1ccc(-c2ccc(F)c(Cl)c2)o1
-0.5%	COC(=O)c1nnn(CC(=O)Nc2ccc(Br)c(C)c2)c1N
-3.3%	COc1ccc(-c2nc(Cn3c(=O)cc(C)c4c(C)nn(-c5ccccc5)c43)c(C)o2)cc1OC
22.9%	Cc1ccc(C)c(NC(=O)Nc2cc3c(cc2N2CCCCC2)n(C)c(=O)n3C)c1
1.5%	CCCCn1c(CNC(=O)C23CC4CC(CC(C4)C2)C3)nnc1SCC(=O)Nc1ccccc1
2.0%	CCc1noc2nc(C)n(CC(=O)O)c(=O)c12
-2.4%	Cc1ccc(C)c(NC(=O)CN2C(=O)COc3ccc(Cl)cc32)c1
?	CCOCCCN1C(=O)c2[nH]nc(-c3ccccc3O)c2C1c1ccc(CC)cc1 (stereo not drawn)
-0.9%	CC1=C(C(=O)Nc2ccccc2C)C(c2ccccn2)n2ncnc2N1 (stereo not drawn)
-8.0%	Cc1noc(-c2ccc(-c3noc(-c4cccc(F)c4)n3)cc2)n1
-1.2%	CNC(=O)C1CCCN(c2nnc(C)c3c(C)n(-c4ccccc4)nc23)C1 (stereo not drawn)
-6.2%	COc1ccc2c(c1)Cc1sc(NC(=O)c3ccc(Cl)cc3)nc1-2
14.2%	COc1ccc(-c2nc(CSCC(=O)N3CCN(c4ccc(OC)cc4)CC3)c(C)o2)cc1
-1.4%	CCOc1ccc(-n2c(=O)c3sc4ccccc4c3n(Cc3ccc(F)cc3)c2=O)cc1
0.0%	CCCOc1ccc(C(=O)Nc2c(C(=O)c3ccc(C)cc3)oc3ccccc23)cc1
-1.4%	COc1ccc(C(=O)CCC(=O)Nc2cccc(C(C)=O)c2)cc1
0.2%	CCOc1ccc2nc(NC(=O)c3ccccc3)sc2c1
1.1%	CC(=O)c1cc(-c2ccccc2)n(CCC(=O)Nc2ccc(C)cc2C)c1C
21.4%	CCN(CC)C(=O)CSc1nc2cc3c(cc2c(=O)n1CCCCCC(=O)NCCc1ccc(OC)c(OC)c1)OCO3
-20.2%	CCc1ccccc1NC(=O)Cn1c(=O)n(CCCCCC(=O)NCc2ccc(C)cc2)c(=O)c2sccc21
-4.3%	CCOc1ccc(C(=O)c2c(N)c(-c3nc(-c4ccc5c(c4)OCO5)cs3)c3ccccn23)cc1
-10.6%	CCOC(=O)C1CCCN(c2ncnc3c2nnn3C)C1 (stereo not drawn)
-4.4%	CCN(CC)C(=O)C1CCN(c2nnc(C)c3c(C)n(-c4ccc(Cl)cc4)nc23)CC1
-16.8%	O=C(NCc1ccc(F)cc1)c1ccc2c(c1)nnn2C1CCCC1
-3.9%	CC(C)(C)OC(=O)N1CCc2nc(N3CCN(c4ncccn4)CC3)ncc2C1
-2.9%	COc1ccc(CCNC(=O)c2cc3c(s2)-c2c(C)cccc2OC3)c(OC)c1
8.7%	Cc1ccc(-n2ncc(C(=O)N3CCN(c4ccc(Cl)cc4)CC3)c2C2CCN(C(=O)OC(C)(C)C)CC2)c(C)c1
-50.5%	COc1ccc(C)cc1NC(=O)c1cc2ccccn2n1
1.6%	Cc1cc(C)cc(NC(=O)Cn2c(=O)n(Cc3ccco3)c(=O)c3oc4ccccc4c32)c1
-6.9%	COC(=O)c1ccccc1NC(=O)C(Cc1ccccc1)N1Cc2ccccc2C1=O (stereo not drawn)
14.0%	CCOC(=O)C1CCN(C(=O)c2nn(-c3ccc(OC)c(Cl)c3)c(=O)c3c2c2ccccc2n3C)CC1
1.1%	Cc1cccc(N2CCN(c3ncnc4c3c(-c3ccccc3)cn4-c3ccccc3)CC2C)c1 (stereo not drawn)
-1.2%	CCOc1ccccc1CNC(=O)c1ccc(NC(=O)N2CCSc3ncccc32)cc1
-7.4%	CCN(CCCNC(=O)c1cc2cc3cc(OC)ccc3nc2s1)c1cccc(C)c1
-17.4%	COc1cc(-c2noc(-c3ccc(N4CCN(C)CC4)c([N+](=O)[O-])c3)n2)cc(OC)c1OC
?	CCC(CC)c1nn2cc(-c3ccccc3)nc2s1
-4.1%	Cc1nc(-n2nc(C)c(Cc3ccccc3Cl)c2C)sc1C(=O)N1CCCCC1C (stereo not drawn)
-0.4%	COc1cccc(OCC(=O)NC2CC(=O)N(c3cccc(OC)c3)C2)c1 (stereo not drawn)
-0.5%	CC(=O)N1CCc2cc(S(=O)(=O)NC(CC(C)C)C(=O)NCCc3cccc(C)c3)ccc21 (stereo not drawn)
11.5%	Cc1ccc(CNC(=O)Nc2cc(C(=O)NCc3cccc(F)c3)ccc2N2CCCC2)cc1
0.2%	COC(=O)c1ccccc1NC(=O)Cn1ncc2c(C)n(Cc3ccc(F)cc3)c(C)c2c1=O
18.2%	Cc1cc(-c2ccc(C)c(S(=O)(=O)N(C)c3ccc(C)c(C)c3)c2)on1
1.1%	Cc1ccc(CN2CCSc3ccc(C(=O)N4CCN(c5ccccc5)CC4)cc32)cc1
0.2%	COC(=O)c1ccc2c(=O)n3nc(Nc4cc(OC)ccc4OC)sc3nc2c1
?	CCCOc1ccc(NC(=O)CC2C(=O)N(c3ccccc3)C(=O)N2Cc2ccc(F)cc2)cc1 (stereo not drawn)
12.5%	Cc1ccc(CS(=O)(=O)c2cn(CC(=O)N(C)c3ccccc3)c3ccccc23)cc1
-0.7%	CNC(=O)c1ccc2c(c1)N(Cc1cc(C)ccc1C)C(=O)c1ccccc1S2
-5.4%	Nc1c(-c2nc(-c3ccccc3)no2)nnn1CC(=O)Nc1cccc(F)c1
-0.3%	COc1ccc(N2CCN(C(=O)C(CC(C)C)NS(=O)(=O)c3ccc4nc(C)sc4c3)CC2)cc1 (stereo not drawn)
1.4%	COc1ccc(-c2nc3c(c(SCC(=O)N(C)c4ccccc4)n2)Cc2cc(C)ccc2O3)cc1
-19.9%	Cc1ccccc1CSc1nc2c([nH]c3ccccc32)c(=O)n1-c1ccccc1
-0.8%	CCc1ccccc1NC(=O)Cn1c(=O)n(Cc2ccc(OC)cc2)c(=O)c2oc3ccccc3c21
-1.5%	Cc1ccccc1OCCCn1c(-c2ccc(Cl)cc2)nc2ccccc2c1=O
6.8%	CCc1ccccc1NC(c1nnc(-c2cccc(F)c2)o1)c1ccc(F)cc1Cl (stereo not drawn)
-5.0%	COc1ccc(/C=C(/C#N)c2nc(-c3cc4ccccc4oc3=O)cs2)cc1
12.4%	Cc1cc(Nc2ccccc2C)c2cccc(C)c2n1
25.0%	Cc1ccccc1Nc1cc(C(=O)NCCCN2CCN(c3cccc(Cl)c3)CC2)c2ccccc2n1
-37.4%	CCN(CC)c1ccc(NC(=O)Cn2nc(C)n3cccc3c2=O)c(C)c1
-13.6%	CSc1cccc(NC(=O)c2cccc(N3CCCS3(=O)=O)c2)c1
-1.7%	Cc1ccc(C)c(N2CCN(c3nc4ccc(C(=O)c5ccccc5)cc4n4cnnc34)CC2)c1

More compounds:
miR-21 reporter	canonical_smiles
-1.5%	CS(=O)(=O)c1ncc(Cl)c(C(=O)Nc2c(C(=O)Nc3ccccc3)oc3ccccc23)n1
-2.2%	O=C1CC(c2ccc(Cl)cc2)Sc2nc(-c3ccc(F)cc3)nn21 (stereo not drawn)
-1.4%	Cc1ccc(NC(=O)CCn2c(=O)c3cccn3c3ccccc32)cc1Cl
0.5%	COc1ccc(Nc2cc(C(=O)NCCCN(C)C3CCCCC3)c3ccccc3n2)c(OC)c1
1.1%	CCOc1ccccc1CNC(=O)C1CCN(S(=O)(=O)c2c(C)noc2/C=C/c2ccc(C)cc2)CC1
-22.3%	CC(C)c1ccc(-c2noc(SCC(=O)N3CCCCC3)n2)cc1
10.7%	CCN(C(=O)c1cc2c(s1)-c1c(C)cccc1OC2)c1cc(C)ccc1C
7.6%	O=C(CSc1nc(=O)[nH]c2c1CCC2)NCc1ccccc1Cl
0.5%	Cc1ccc(NC(=O)Cn2nnc3sc4c(c3c2=O)CCCC4)c(C)c1
6.6%	CC(C)CNC(=O)Nc1cc(C(=O)NCc2ccc(C(C)C)cc2)ccc1N1CCCC1
-32.3%	COc1ccc(-c2nc3sc(CCNC(=O)C(=O)Nc4ccc(C)cc4C)c(C)n3n2)cc1
23.7%	CCOc1cc(C2C(C(=O)OC)=C(C)NC3=C2C(=O)c2ccccc23)cc(Br)c1OCC (stereo not drawn)
-5.8%	Cc1ccc(CSc2nnc(-n3c(=O)c(C#N)cc4c(=O)n5cc(C)ccc5nc43)s2)cc1
-1.1%	O=c1oc2ccc3ccccc3c2cc1-c1nnc(Nc2cccc(F)c2)s1
-10.7%	Cc1ccc(OCC(=O)Nc2ccc3nc(SCC(N)=O)sc3c2)cc1
?	CC1CCCCN1c1c(S(=O)(=O)c2ccc(Cl)cc2)cnc2ccccc12 (stereo not drawn)
6.3%	CCOC(=O)N1CCN(Cc2nc3cc([N+](=O)[O-])ccc3n2C(C)C)CC1
-15.9%	CN(C)c1cc2c(cc1NC(=O)c1ccc(F)cc1)n(C)c(=O)n2C
-5.3%	O=C1COc2ccc(-c3cc(-c4ccc(F)cc4)c4c(n3)-c3cc(Cl)ccc3OC4)cc2N1
25.7%	CC(=O)c1c(C)oc2c1cc(NS(=O)(=O)c1ccc(Br)cc1)c1ccccc12
1.3%	COc1ccccc1CNC(=O)C1CCCN(c2nc3ccccc3n3cccc23)C1 (stereo not drawn)
-5.4%	CCc1cccc(NC(=O)Cn2c(=O)n(CCCCCC(=O)NCc3ccc(F)cc3)c(=O)c3sccc32)c1
-2.1%	Cc1cccc(OCC(=O)Nc2cc(-c3ccccc3F)nn2-c2ccccc2)c1
6.7%	CCOc1ccc(-n2c(=O)c3c(C)c(C(=O)N(C)C)sc3n(CC(=O)Nc3c(C)cc(C)cc3C)c2=O)cc1
-0.5%	Cc1cc2c(cc1S(=O)(=O)Nc1cccc(C#N)c1)OCC(=O)N2
20.2%	Cc1ccc(C2c3[nH]c4ccccc4c3CCN2C(=O)CCC2CCCC2)cc1 (stereo not drawn)
-3.7%	COc1ccc(NC(=O)CSc2nc3c(oc4ccccc43)c(=O)n2Cc2ccco2)cc1Cl
-8.8%	Cc1c(C)n(Cc2ccccc2)c2ccc(C(=O)NCc3ccco3)cc12
-0.9%	Cc1cc(C)cc(NC(=O)C(NS(=O)(=O)c2cccc3nsnc23)c2ccccc2)c1 (stereo not drawn)
-0.1%	CC(C)CCNC(=O)c1c2c(nc3ccccc13)C(=O)N(C1CCCCC1)C2
-9.4%	Cn1cc([N+](=O)[O-])c(C(=O)NC2CCCCCCC2)n1
?	O=C(Nc1cc(C(F)(F)F)ccc1Cl)c1cnn(-c2ccccc2)c1-n1cccc1
-3.8%	CCCOC(=O)CSc1nnc2ccc3ccccc3n12
-26.1%	CC1CN(C(=O)CCC(=O)NCc2cccs2)c2ccccc2O1 (stereo not drawn)
-7.1%	CCCC(=O)Nc1cccc(OCc2cc(=O)n3cccc(C)c3n2)c1
-1.0%	C=Cc1ccc(Cn2c(C(=O)O)c(CNC3CCCC3)c3ccc(C)cc32)cc1
24.8%	Cc1nc(N2CCCC2)c2c(C(=O)N3CCN(c4cccc(Cl)c4)CC3)c(C)oc2n1
-20.9%	CCCCCn1c(CN2CCN(c3ccc(OC)cc3)CC2)nc2c1c(=O)[nH]c(=O)n2C
14.2%	O=C(Nc1ccc(F)cc1)C1CCCN(c2ncnc3c2nc2n3CCCCC2)C1 (stereo not drawn)
5.9%	CCC12CN3CC(C)(CN(C1)C3c1c[nH]c3ccccc13)C2=O (stereo not drawn)
-2.6%	Cc1ccccc1NC(=O)c1ccccc1NC(=O)c1ccccc1Cl
0.3%	COc1ccc(N2CCN(c3ncnc4c3cnn4C)CC2)cc1
12.1%	Cc1ccc(-c2onc(C)c2C)cc1S(=O)(=O)NCc1ccc(N(C)C)cc1
-2.7%	Cc1c(Cl)cccc1-n1ncc(C(=O)NC2CCCCC2)c1C1CCN(C(=O)OC(C)(C)C)CC1
-0.4%	CCc1ccc(-n2c(=O)c3sc4ccccc4c3n(Cc3cccc(F)c3)c2=O)cc1
5.7%	Cc1cccn2c(=O)cc(COc3ccc(NC(=O)C(C)Oc4ccccc4)cc3)nc12 (stereo not drawn)
15.2%	O=C(COc1ccc(Cl)cc1)N(Cc1ccco1)Cc1ccco1
3.7%	CC(=O)N1CCc2cc(S(=O)(=O)NC(Cc3ccccc3)C(=O)NCc3ccc(C)cc3)ccc21 (stereo not drawn)
6.6%	CCc1ccc(NC(=O)CC2C(=O)N(c3cccc(OC)c3)C(=O)N2Cc2ccco2)cc1 (stereo not drawn)
5.8%	CCc1ccc(Sc2cc(C(=O)O)c3ccccc3n2)cc1
-1.4%	Cc1cccc(C)c1OCC(=O)N(Cc1ccccc1F)C1CCS(=O)(=O)C1 (stereo not drawn)
-0.2%	CCOC(=O)C1CCN(C(c2ccc(SC)cc2)c2c(O)cc(C)n(Cc3ccco3)c2=O)CC1 (stereo not drawn)
